GALR2 ag: GALR2 receptor agonists, primary screen, cell-based. 140,000 tested, 0.48% active. GALR2-expressing cells, agonist activation read-out. activation, %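 (tested at 5 µM)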. Galanin receptor type 2 (Homo sapiens), O43603;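 active means above mean plus 3 SD of all compounds, about 5% in these data, not always enough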;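 further: 0% = vehicle buffer wells and 100% = reference agonist at full effect; tested in CHO reporter cells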
Target sequence (O43603 whole entry, looked up): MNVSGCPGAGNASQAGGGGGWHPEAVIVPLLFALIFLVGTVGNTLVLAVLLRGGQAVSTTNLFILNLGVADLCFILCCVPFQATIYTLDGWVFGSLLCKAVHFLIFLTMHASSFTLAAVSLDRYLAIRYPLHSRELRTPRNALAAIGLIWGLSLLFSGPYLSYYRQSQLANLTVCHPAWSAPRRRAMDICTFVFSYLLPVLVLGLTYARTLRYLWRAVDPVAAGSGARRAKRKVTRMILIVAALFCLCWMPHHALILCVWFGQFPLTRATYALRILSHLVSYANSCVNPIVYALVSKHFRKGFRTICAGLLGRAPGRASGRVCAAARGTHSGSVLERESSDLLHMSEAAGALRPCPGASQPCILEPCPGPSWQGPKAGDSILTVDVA
HSV augment: enhancers of HSV replication in host cells, fold increase, host cell viability; HSV replication augmentation in cells; maximum fold increase; 220,000 tested, 0.005% active;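 active means peak rise of 1.5-fold or more in the series; tested in PC3 cells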;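 further: first round at 10 µM; read as green reporter fluorescence; hits show the peak of a series up to 25 µM; 1 = signal of infected wells without compound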
PKD1 inh: inhibitors of human PKD1 kinase, biochemical, fluorescence polarization | 200,000 tested, 0.056% active | Serine/threonine-protein kinase D1 (Homo sapiens), Q15139 | AID 797, 2007 | PKD1 kinase fluorescence polarization assay | inhibition, %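 (about 10 µM by stock and volumes)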;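 active means inhibition of 50% or more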;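 further: controls were vehicle for no effect and a reference inhibitor for full effect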
RGS16-Gao HTS: modulators of RGS16 binding to Galphao, primary screen, biochemical, human proteins, multiplexed bead flow cytometry; Regulator of G-protein signaling 16 (Homo sapiens) + Guanine nucleotide-binding protein …; binding response (% of control), % at 10 µM; bead-based flow cytometry RGS16-Galphao binding, fluorescence; actives lie on both sides; 220,000 tested, 0.38% active;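 active means below 25% or above 175%, edge rows of some plates excepted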;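 further: Galphao activated by GDP with aluminum fluoride before binding; 100% = wells without compound and 0% = beads without RGS; some results beyond the cut were filed as inactive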
Target sequence (O15492 whole entry, looked up): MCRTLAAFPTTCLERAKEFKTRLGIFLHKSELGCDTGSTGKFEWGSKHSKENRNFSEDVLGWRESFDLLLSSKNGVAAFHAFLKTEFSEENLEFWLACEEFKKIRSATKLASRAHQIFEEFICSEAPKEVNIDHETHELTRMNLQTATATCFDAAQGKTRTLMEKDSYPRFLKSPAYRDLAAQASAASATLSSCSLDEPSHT
Target sequence (P09471 whole entry, looked up): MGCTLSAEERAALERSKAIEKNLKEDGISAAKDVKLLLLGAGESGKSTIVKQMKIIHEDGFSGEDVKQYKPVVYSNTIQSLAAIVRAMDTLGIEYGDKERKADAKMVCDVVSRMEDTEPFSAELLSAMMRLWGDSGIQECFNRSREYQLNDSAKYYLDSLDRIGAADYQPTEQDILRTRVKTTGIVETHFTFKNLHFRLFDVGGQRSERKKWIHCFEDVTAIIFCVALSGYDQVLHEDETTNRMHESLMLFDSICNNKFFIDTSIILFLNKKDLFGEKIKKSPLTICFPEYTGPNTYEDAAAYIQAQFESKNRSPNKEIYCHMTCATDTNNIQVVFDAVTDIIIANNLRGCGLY
Insulin prom inh: inhibitors of insulin promoter-driven GFP, primary screen, imaging, TRM-6 cells (human fetal islet line), eGFP reporter, cell count; inhibition, % at 2 µM; AID 1273, 2008; 130,000 tested, 0.9% active; reporter expression induced with tamoxifen;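 active means inhibition above the mean plus 3 SD, with well images judged a real hit on visual review, cut at about 60% in these data, passing the limit was not always enough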
Insulin prom inh cell count: further read-out of Insulin prom inh, marked with its call; normalized cell count, %; measured here: cell count, toxicity; reference of the scale not given here;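 cells exposed to compound for 48 h; stained nuclei by imaging scaled within each plate; lower means fewer cells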
HSV augment primary fold: also measured in HSV augment; calls as there; fold increase; compound at 10 µM; measured here: primary screen fold increase 10 uM; tested in PC3 cells;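 GFP signal in the first replicate; 1 = infected wells without compound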
Active calls of the source: *; i = inactive; / = not tested or not shown.

Every second line gives: GALR2 ag, HSV augment, HSV augment primary fold, PKD1 inh, RGS16-Gao HTS, Insulin prom inh, Insulin prom inh cell count
> Cc1cc(C)n2cc(CSc3ccc(Br)cc3)nc2n1
→ /, i, 1.1, 10, 109, -50, 38
> Cc1cccc(OCc2n[nH]c(=S)n2Cc2ccccc2)c1
→ /, i, 0.96, 4, 98, /, /
> CN(C)S(=O)(=O)Nc1ccc2c(c1)Cc1ccccc1-2
→ -1.0, i, 0.93, 3, 104, /, /
> COC(=O)C1=CN(c2cccc(C)c2)C=C(C(=O)OC)C1c1cc(OC)c(O)c([N+](=O)[O-])c1
→ -0.1, i, 0.77, 1, 98, 3, 32
> Cn1c(=O)c2c(n(Cc3ccccc3)c1=O)NC(=O)C2CC(=O)O (configuration not stated)
→ 2.1, i, 0.98, 5, 98, -30, 70
> CCCCNC(=O)NS(=O)(=O)c1ccc(C(=O)OC)o1
→ -0.9, i, 0.96, -11, 94, -8, 75
> CCOC(=O)C1(CCc2ccccc2)CCN(Cc2nccn2CC)CC1
→ /, i, 1.1, -1, 99, /, /
> Cc1ccc(Nc2c([N+](=O)[O-])cc(C(=O)N3CC(=O)Nc4ccccc43)cc2[N+](=O)[O-])c(C)c1
→ -2.1, i, 0.78, 1, 96, 13, 135
> CCOC(=O)c1cc2c(=O)n3cccc(C)c3nc2n(Cc2ccco2)c1=NC(=O)c1ccccc1
→ 0.4, i, 0.89, -1, 96, 17, 110
> O=C(NC1(C(F)(F)F)NC(=O)N(c2ccccc2)C1=O)c1cccs1 (configuration not stated)
→ 1.0, i, 0.97, -13, 100, -48, 127
> CN(C)/C=C1\Cc2ccccc2C1=O
→ /, i, 1, /, 100, /, /
> COc1ccc(Cl)cc1-c1n[nH]c(=S)n1C
→ -1.0, i, 0.94, -1, 101, 19, 50
> Cc1ccc(SC[C@H](Cc2ccccc2)N2CCN(CC(C)C)CCC2=O)cc1
→ /, i, 0.98, /, 93, /, /
> CC1=CC2=NC(=O)/C(=C\c3cc(C)n(-c4cccc(Cl)c4)c3C)C(=N)N2O1
→ -0.6, i, 0.89, 4, 88, 7, 119
> CC1CCCCC1NC(=O)c1ccc(S(=O)(=O)N2CCCC2)cc1 (configuration not stated)
→ -0.9, i, 0.96, 6, 89, 38, 59
> Cn1c(=O)c2c(nc(Oc3ccc4c(c3)OCO4)n2Cc2ccc(F)cc2)n(C)c1=O
→ 1.0, i, 0.95, -16, 112, /, /
> CCO[C@@H]1OC(C(=O)N2CCOCC2)=C[C@H](c2ccccc2)[C@H]1CCCO
→ /, i, 0.82, -2, 99, /, /
> COc1ccc(OC)c(C2CC(=O)C3=C(C2)NC(=O)CC3c2ccc(O)c(OC)c2)c1 (configuration not stated)
→ -0.8, i, 1, -4, 100, -6, 130
> CCC(=O)NCCc1nc2cc(NC(=O)c3ccccc3OC)ccc2n1C
→ -0.6, i, 0.77, -6, 103, 31, 104
> COc1cc(CNCCN(C)C)c(Br)cc1OCC(=O)NCc1ccccc1
→ -0.6, i, 1.1, -8, 116, -48, 65
> COc1ccc(CNC(=S)Nc2ccc(OC)cc2)cc1
→ -1.5, i, 0.98, -11, 108, 44, 89
> CCOc1ccccc1OCC(=O)Nc1ccc(Cl)cc1Cl
→ -1.0, i, 0.98, 0, 115, -6, 100
> O=S(=O)(NCc1ccccc1)c1ccc(S(=O)(=O)N(Cc2ccccn2)C2CCCC2)cc1
→ -1.3, i, 1, -5, 65, -10, 74
> COc1cccc(-c2nnc(SCC(=O)Nc3ccc(S(N)(=O)=O)cc3)n2C)c1
→ -1.2, i, 0.9, -1, 103, /, /
> O=C(c1ccco1)N1CCN=C1SCc1ccc(F)cc1
→ -1.2, i, 1, -5, 102, -10, 75
> CC1CCN(C(=O)c2ccc(SCc3ccccc3F)c([N+](=O)[O-])c2)CC1
→ -1.0, i, 0.95, -17, 96, 5, 132
> O=C(NCCOc1ccccc1Cl)C(=O)c1c[nH]c2ccccc12
→ /, i, 0.78, -3, 111, 0, 111
> COc1cc(OC)cc(C(=O)Nc2c(C)nn(-c3ccccc3)c2C)c1
→ /, i, 0.93, -3, 102, 27, 60
> COC(=O)/C(=C/c1ccccc1)NC(=O)c1ccco1
→ -1.3, /, /, -9, 113, -8, 117
> CC(C)CCNC(=O)NC(=O)COc1ncnc2sccc12
→ -1.6, i, 0.96, -3, 144, 12, 105
> Cc1cccc(N(Cc2ccccc2F)S(C)(=O)=O)c1
→ -0.1, i, 1.1, -4, 98, 12, 101
> COc1cc(CN2CCC(C(=O)N3CCN(c4ccccc4F)CC3)CC2)ccc1O
→ -1.1, i, 0.9, 22, 107, 43, 73
> CN(C)C(=O)C1(c2ccccc2)CCN(S(=O)(=O)c2ccccc2)CC1
→ -1.7, i, 0.92, -8, 113, -5, 91
> Cc1ccc(-c2nc(-c3cccnc3)sc2CC(=O)Nc2ccc(C)c(Cl)c2)cc1
→ -1.5, i, 0.96, 6, 99, 0, 128
> COc1ccccc1S(=O)(=O)Cc1ccc(C(=O)N2CCCC2)o1
→ -5.0, i, 0.83, -2, 101, /, /
> Cc1[nH]n(-c2ccccc2)c(=O)c1/C=N/NC(=O)COc1ccccc1[N+](=O)[O-]
→ 0.7, i, 0.84, -8, 99, -24, 122
> Cc1ccc2nc(-c3cccc(Br)c3)cc(C(=O)Nn3cnnc3)c2c1
→ /, i, 0.94, -3, 103, /, /
> O=C(COc1cccc(Cl)c1)NNC(=S)Nc1ccccc1
→ 0.3, i, 1.1, -7, 63, /, /
> O=C(NC1CC2CCCC(C1)N2Cc1ccccc1)C1CCCCC1 (configuration not stated)
→ /, i, 0.93, 7, 98, /, /
> S=C(Nc1cccc(Cl)c1)Nc1cccc2cnccc12
→ -0.8, i, 0.88, 7, 41, /, /
> COc1ccc(/C=C/C(=O)Nc2c(C)nn(C)c2C)cc1COc1ccc(Cl)cc1Br
→ 1.5, i, 0.93, -7, 176, -47, 275
> Cc1cccc(/N=C/c2c(C)[nH]n(-c3ccccc3)c2=O)n1
→ /, i, 0.94, /, 105, /, /
> CCOC(=O)c1cnc(SC)nc1Sc1ccccc1
→ -1.3, i, 1.2, -17, 103, 18, 64
> CCOC(=O)C1(CCC(C)C)CC(CSc2nc3ccccc3[nH]2)OC1=O (configuration not stated)
→ -0.8, i, 0.9, 0, 105, -18, 84
> O=S(=O)(NCc1cc(-c2ccc(Cl)cc2)no1)c1ccc(Cl)cc1
→ -3.0, i, 0.88, -13, 108, -47, 156

One compound at a time (already shown). Values in the order: GALR2 ag | HSV augment | HSV augment primary fold | PKD1 inh | RGS16-Gao HTS | Insulin prom inh | Insulin prom inh cell count
Cc1cccc(N(Cc2ccccc2F)S(C)(=O)=O)c1 across the screens: -0.1 | i | 1.1 | -4 | 98 | 12 | 101
COc1cc(CN2CCC(C(=O)N3CCN(c4ccccc4F)CC3)CC2)ccc1O across the screens: -1.1 | i | 0.9 | 22 | 107 | 43 | 73

Going on with the list.
Every second line gives: GALR2 ag, HSV augment, HSV augment primary fold, PKD1 inh, RGS16-Gao HTS, Insulin prom inh, Insulin prom inh cell count
> COc1ccccc1CNC(=O)C1CC(c2ccc([N+](=O)[O-])cc2)=NO1 (configuration not stated)
→ 0.6, i, 0.84, -4, 102, 29, 161
> CC(=O)c1ccc(C(=O)N2CCCC(CCC(=O)N(C)CCc3ccccn3)C2)s1 (configuration not stated)
→ /, i, 1.1, -4, 113, 7, 23
> COc1ccc(OC)c(NC(=O)c2ccc3c(=O)n(CCc4ccccc4)c(=S)[nH]c3c2)c1
→ -1.3, i, 0.9, -2, 100, /, /
> CCCCC(=O)Nc1ccc(C(=O)NNC(=O)c2ccccc2Br)cc1
→ -0.8, i, 1.3, -17, 96, -16, 125
> CC(c1nccs1)N(C)C(=O)CCc1nnc(-c2ccc(-c3ccccc3)cc2)o1 (configuration not stated)
→ /, i, 1.1, -1, 101, /, /
> S=c1[nH]nc(COc2ccccc2)n1/N=C/c1ccco1
→ /, i, 1.1, -2, 98, -24, 85
> CC12c3ccccc3C(c3ccccc31)C1C(=O)N(Cc3cccnc3)C(=O)C12 (configuration not stated)
→ -2.1, i, 0.95, 4, 98, 0, 90
> Cn1c(=O)c2c(ncn2CC(=O)Nc2nccs2)n(C)c1=O
→ /, i, 0.97, /, 107, /, /
> NC(=O)CSc1nnc(CNc2cccc(Cl)c2)n1CCc1ccccc1
→ -0.6, i, 0.98, -2, 97, /, /
> CN(CC(=O)O/N=C(\N)c1ccc([N+](=O)[O-])cc1)S(=O)(=O)c1ccc2ccccc2c1
→ -2.1, /, /, -1, 66, 25, 70
> CCCn1c(SC(C(=O)Nc2cccc(OC)c2)c2ccccc2)nc2ccccc2c1=O (configuration not stated)
→ -0.9, i, 0.98, -1, 64, -13, 101
> Cc1ccc(S(=O)(=O)N2CCC(C(=O)C3C(=O)CC(C)(C)CC3=O)CC2)cc1
→ /, i, 0.92, -1, 95, /, /
> CCOCCCNC(=O)C(c1ccc(Cl)cc1)N1CCN(c2ccccc2)CC1 (configuration not stated)
→ /, i, 1, -8, 100, /, /
> COc1cc(NC(=S)N2CCN(C(=O)C3CCCO3)CC2)c(OC)cc1Cl (configuration not stated)
→ -0.1, i, 0.93, 1, 106, -12, 119
> COCCCN1C(=O)c2[nH]nc(-c3ccccc3O)c2C1c1ccc(Cl)cc1 (configuration not stated)
→ -0.7, i, 0.8, 5, 104, /, /
> O=C(Cn1nc(C(F)F)cc1C(F)F)NNC(=S)Nc1ccc([N+](=O)[O-])cc1
→ /, i, 0.92, 4, 96, /, /
> CCOC(=O)c1cnc(SCCc2ccccc2)nc1N
→ -0.5, i, 0.77, -2, 101, -31, 164
> COc1cc(OC)cc(N(C(=O)CNC(=O)c2cccs2)C(C(=O)NCC2CCCO2)c2ccc(OC)c(OC)c2)c1 (configuration not stated)
→ /, i, 0.84, -2, 105, /, /
> O=C(CSc1nc2ccccc2[nH]1)Nc1cccc(S(=O)(=O)N2CCOCC2)c1
→ /, i, 1.1, -1, 97, /, /
> CSc1nnc(NC(=O)c2ccc(S(=O)(=O)N(C)C)cc2)s1
→ /, i, 1, 2, 94, /, /
> C#CCSc1nnnn1-c1ccc(OCC)cc1
→ /, i, 1.2, /, 97, /, /
> CCC(=O)c1ccc(NC(C)=O)cc1O
→ /, i, 1, /, 99, /, /
> Cc1csc(NC(=O)CS(=O)(=O)c2ccccc2)n1
→ /, i, 1, -2, 102, /, /
> O=C(CNCc1ccccn1)Nc1cc(S(=O)(=O)N2CCCCC2)ccc1Cl
→ /, i, 0.92, -7, 99, -45, 79
> O=C(NCc1cccnc1)c1ccccc1CCc1ccccc1
→ /, i, 1, 1, 103, /, /
> CCOC(=O)c1c(NC(=O)CSc2cn(CC)c3ccccc23)sc2c1CCC2
→ -1.5, i, 0.9, -5, /, -10, 113
> CC1CN(C(=O)Nc2ccc3c(c2)OCO3)CC(C)O1 (configuration not stated)
→ -1.6, i, 0.83, 1, 100, /, /
> CCC(Oc1ccccc1)C(=O)Nc1ccc(S(=O)(=O)N2CCOCC2)cc1 (configuration not stated)
→ -0.5, i, 0.7, -7, 101, 17, 95
> Clc1ccc(CSc2nnc(CNc3cccc(Cl)c3)o2)cc1
→ -3.0, /, /, -1, 91, 9, 86
> COc1nc(/C=C/N(C)C)c([N+](=O)[O-])c(OC)n1
→ /, i, 0.86, /, 107, /, /
> CC(=O)CC(c1ccc([N+](=O)[O-])cc1)c1c(O)c2ccccc2oc1=O (configuration not stated)
→ -2.3, i, 1, -3, 105, 17, 104
> O=c1cc(C(F)(F)F)nc(-n2[nH]c3c(c2=O)CCCC3)[nH]1
→ 1.1, i, 0.95, -5, 100, 29, 42
> Cc1c(C)c2ccc(OCC(=O)N(C)C)c(C)c2oc1=O
→ -3.0, i, 1, -5, 69, 52, 102
> N#CCCN(C(=O)CCl)c1cccc(Cl)c1
→ /, i, 0.97, -6, 101, /, /
> N/C(=N\c1nc(CSc2nnnn2-c2ccccc2)cc(=O)[nH]1)Nc1ccccc1
→ /, i, 0.92, 1, 118, /, /
> Cc1cc(C)c(S(=O)(=O)Nc2cccc(S(=O)(=O)NC3=NCCC3)c2)c(C)c1
→ /, i, 1.2, 4, 106, -11, 76
> CCOC(=O)Cn1nc(C)cc1NC(=O)c1ccncc1
→ /, i, 0.96, -3, 108, 0, 155
> COCCCn1c(SCc2ccccc2)nc2cc(OC)c(OC)cc2c1=N
→ 1.1, i, 0.64, -1, 89, 28, 77
> CCCn1c(SCC(=O)NC2CCCC2)nnc1-c1ccccn1
→ /, i, 0.88, /, 94, /, /
> c1csc(-c2nc3c4ccccc4c4ccccc4c3[nH]2)c1
→ -2.5, i, 1, 1, 102, 40, 80

Source: PubChem BioAssay (several laboratories)
